High-throughput results deposited in PubChem BioAssay by National Center for Advancing Translational Sciences (NCATS).
D2 potentiator – human D2 receptor positive allosteric modulation. DiscoveRx D2 beta-arrestin cells, luminescence, 90 min; 100% = 57 uM dopamine signal. potentiation, % (test concentration not listed). actives 0.23% (n = 360,000); active = potentiation of 50% or more; inconclusive = 30% to 50%; inactive = 30% or less;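 note: compound concentration not given in the record; tested on top of an EC20 dose of dopamine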
Target sequence (P14416 whole entry, looked up): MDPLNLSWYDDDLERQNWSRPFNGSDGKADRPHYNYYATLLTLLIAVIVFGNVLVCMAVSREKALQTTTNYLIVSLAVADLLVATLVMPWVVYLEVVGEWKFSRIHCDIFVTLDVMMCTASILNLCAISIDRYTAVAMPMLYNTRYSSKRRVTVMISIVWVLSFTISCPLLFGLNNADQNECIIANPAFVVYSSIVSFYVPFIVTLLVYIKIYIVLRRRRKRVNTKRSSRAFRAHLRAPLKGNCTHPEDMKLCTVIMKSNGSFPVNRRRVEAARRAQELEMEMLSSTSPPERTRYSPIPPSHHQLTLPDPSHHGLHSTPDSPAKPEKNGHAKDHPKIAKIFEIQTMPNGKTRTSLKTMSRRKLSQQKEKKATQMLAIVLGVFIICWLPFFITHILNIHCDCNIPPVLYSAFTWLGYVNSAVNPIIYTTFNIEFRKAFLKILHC
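PathHunter D2 cells, attached overnight at 37 deg C, received compound in DMSO plus dopamine at EC20 (50 nM final) for 90 min at 37 deg C. Beta-arrestin recruitment was read as luminescence after 1 h with detection reagent at ambient temperature.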
gsp ag – agonists of gsp mutant (McCune-Albright syndrome); gsp mutant cells, cAMP HTRF, 30 min; control for the full effect not named in the record; Potency, µM (highest dose often 76.9 µM), inactives show top-dose activation (cAMP increase), most hits filed as activators; actives 0.13% (n = 340,000); AID 624287; active = well fitted activation curve with a large enough effect; inconclusive = small, poorly fitted or top-dose-only effect, or another doubt; inactive = no such curve, though single readings can be large or run the other way; cell line not stated here;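 note: phosphodiesterase inhibitor Ro 20-1724 added with compounds to block cAMP breakdown; potency is the fitted concentration of half-maximal effect; nearly all actives have a fitted effect of over 60% in size; about a fifth of the inactives were tested at one dose only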
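Cells in DMEM/10% FBS with G418 were pretreated with compounds in DMSO plus […] (300 uM stock) for 30 min at 37C. cAMP was measured by HTRF (cAMP-d2 plus anti-cAMP antibody-K) after 30 min at room temperature.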
Menin MLL FP FL – displaces fluorescein MLL peptide from human menin; AID 1766; FP activity change, % at 61.4 µM; Fluorescence polarization, fluorescein-MLL peptide displacement from menin; 290,000 tested, under 10 active; inconclusive = falling polarisation curve, or a change in total fluorescence; inactive = total fluorescence flat and polarisation flat or rising; no compound was filed as active; the % refers to the polarisation; negative = inhibition;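 note: % of control where 0% means no effect; inhibitors lower the polarisation; unlabelled MLL peptide was the positive control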
gsp antag – gsp mutant antagonism; AID 624288; Potency, µM (titrated, usually from 76.9 µM), for inactives: top-dose activity change, negative = inhibition, actives largely listed as inhibitors; actives 0.4% (n = 340,000); gsp-mutant cells, cAMP HTRF, 30 min; control for the full effect not named in the record; active = falling curve of any shape with a large fitted effect; inconclusive = falling curve, mostly with a smaller effect; inactive = flat or rising curve; cell line not stated here;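 note: intracellular cAMP measured with PDE inhibitor Ro 20-1724 present during compound exposure; potency is the fitted concentration of half-maximal effect; % is set by controls: 0 for no effect and ±100 for the full control effect; nearly all actives have a fitted effect of over 65% in size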
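Measurement of cellular cAMP by homogeneous time-resolved fluorescence following a 30 min compound exposure at 37C. The PDE inhibitor […] was present throughout; the assay buffer was DPBS with 0.05% BSA and 0.005% Tween 20.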
TRPV1 PAM – potentiators of human vanilloid receptor 1 (TRPV1) | Q8NER1 | TRPV1-expressing cells, Fluo-8 calcium influx, capsaicin EC20 potentiation; host cell line not named in the record; control for the full effect not named in the record | potentiation, % at 8.33 µM | actives 0.02% (n = 320,000) | AID 540277; active means potentiation above 80%; inconclusive means 30% to 80%; inactive means below 30%; note: 0% is about no effect
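TRPV1-expressing cells were cultured overnight at 35.5C and loaded with Fluo-8 calcium dye for 40 to 90 min at room temperature. After a 10 s baseline, compound was added and calcium influx was read kinetically for 3 min (ex 480/em 520 nm).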
ClpP mod – qHTS Assay for Activators of ClpP | Potency, µM (highest dose often 57.5 µM), inactives show top-dose activity change, negative = active | ATP-dependent Clp protease proteolytic subunit (Bacillus subtilis (strain 168)), P80244 | actives 1.9% (n = 340,000) | purified B. subtilis ClpP, FRET peptide cleavage, 20 min; active = well fitted falling curve with a large enough effect; inconclusive = small, poorly fitted or top-dose-only effect; inactive = no such curve, though single readings can be large or run the other way; note: potency is the fitted concentration of half-maximal effect; the source files actives as falling curves though it sought activators and does not explain the sign; nearly all actives have a fitted effect of over 65% in size; many hits overshoot -100%
Target sequence (P80244 whole entry, looked up): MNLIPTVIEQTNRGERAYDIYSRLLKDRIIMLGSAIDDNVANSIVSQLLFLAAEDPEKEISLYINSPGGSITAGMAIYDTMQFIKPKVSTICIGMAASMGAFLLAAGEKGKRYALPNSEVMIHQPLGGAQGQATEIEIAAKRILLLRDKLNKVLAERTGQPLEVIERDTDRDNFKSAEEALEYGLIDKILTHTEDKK
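FRET quenching reversal measured ClpP activation: 10 microg/mL B. subtilis ClpP at pH 8 with the FRET-FV decapeptide, read at 430 nm after 320 nm excitation. The 20-min minus 0-min signal was scaled between DMSO/no-enzyme wells and ADEP (5.8 microM final).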
Sfp inh – blocks B. subtilis Sfp PPTase activity. Q9F4F7. Biochemical Sfp PPTase activity, qHTS. Potency, µM, for the others: max response, negative = inhibition, most hits filed as inhibitors. actives 3.5% (n = 310,000). AID 1490; active = well fitted inhibition curve with a large enough effect; inconclusive = small, poorly fitted or top-dose-only effect, or another doubt; inactive = no such curve, though single readings can be large or run the other way;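 note: the enzyme is Sfp with the accession as filed and its product quenches rhodamine fluorescence; potency is the fitted concentration of half-maximal effect; 0% = enzyme reaction without inhibitor and -100% = no enzyme wells; top concentration of the series not given in the record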
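Compounds were incubated with enzyme (final 15 nM) for 15 min at room temperature before substrate addition started the reaction. Fluorescence at 525 nm excitation, 598 nm emission was recorded immediately and after 30 minutes.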
* marks the source's active call; other numbers are inactive results; ? = inconclusive; . = no result given; & = joins results of further samples; ! = repeats disagree; [ ] = another dose, or the depositor's remark.

Results follow in this order: D2 potentiator	gsp ag	Menin MLL FP FL	gsp antag	TRPV1 PAM	ClpP mod	Sfp inh
- CCSc1nnc(-c2ccccc2NC(C)=O)c(=O)[nH]1
 : 4	2%	6.9	18%	6	-1.2%	-8%
- O=C1O/C(=C/C(=O)N2CCOCC2)c2ccccc21
 : -11	1%	2.6	-16%	16	0.8%	-23%
- Cc1cc(Cl)ccc1NC(=O)CCC(=O)O
 : -8	5%	.	10%	1	-0.6%	29%
- CCN(C(=O)COC(=O)CNC(=O)c1ccc2ccccc2c1)c1c(N)n(Cc2ccccc2)c(=O)[nH]c1=O
 : -14	27%	.	13%	.	-12%	.
- CCN(CCn1cccn1)C(=O)CC1C(=O)NCCN1CCc1ccccc1 (stereo not given)
 : -11	?	.	12%	-11	26%	2%
- CN(Cc1ccccc1)C(=O)COC(=O)c1ccccc1SCC(=O)N1CCCC1
 : -21	1%	.	-20%	7	-2.1%	.
- COc1ccc(Cl)cc1C(=O)NNC(=S)NC(=O)c1cc(-c2ccccc2)nc2ccccc12
 : 3	16%[15.4 µM]	3.9	7%	17	-0.5%	-8%
- CC(C)(C)NC(=O)Cn1cc(C#N)c2cc(Br)ccc21
 : -2	1%	4.8	6%	-12	-1.5%	14%
- COc1ccc(S(=O)(=O)Nc2cccc(S(=O)(=O)N3CCCCC3)c2)cc1
 : -6	?	.	-6%	.	0.5%	.
- CCOC(=O)c1c(S(=O)(=O)N2CCc3ccccc32)c(C)n(C)c1C
 : -3	26%	1.8	-6%	12	-0.4%	7%
- CC1(C)CC(=O)C2=C(C1)N=c1s/c(=C/c3ccc(F)c(F)c3)c(=O)n1C2c1ccc(F)cc1 (stereo not given)
 : 11	18%	0.5	10%	23	2.2%	13%
- CCN(CC)c1ccc(NC(=O)CSc2nc(C3CC3)nc3ccccc23)cc1C
 : 1	-2%	0.8	7%	16	.	?
- CC1=C(C(=O)NCc2ccco2)C2(CCC(C)CC2)OC1=O (stereo not given)
 : -5	-84%	1.3	-2%	8	-1.3%	-18%
- Cc1cc(-c2ccccc2)nc(SC(C(=O)O)c2ccccc2)n1 (stereo not given)
 : -7	2%	2.1	15%	18	1.5%	22%
- CC(C)NC(=O)NCCCCCCS(C)=O (stereo not given)
 : -1	-2%	0.5	5%	14	1.2%	8%
- CCOC(=O)c1cnc(SC)nc1Nc1cccc2ccccc12
 : -15	1%	3.6	-1%	1	-0.2%	-4%
- COc1ccc(C)cc1CN(C)c1ccc(S(=O)(=O)N2CCN(C)CC2)cn1
 : -3	-7%[15.4 µM]	.	-1%	-17	.	.
- C/C(=N/Nc1ccc(Cl)cc1)c1cnnc(-c2ccccc2)n1
 : -2	-28%	-7.9	6%	0	-2.2%	15%
- CCCCOC(=O)Cn1c(-c2ccccc2)nc2ccccc2c1=O
 : -5	-5%	4.5	-13%	3	3.1%	-26%
- CCCNC(=O)N1CCN(S(=O)(=O)c2ccc3c(c2)OCCO3)CC1
 : -9	4%	.	5%	?	0.6%	.
- COc1cccc(N2CCN(C(=O)c3ccc(CS(=O)c4ccc(Cl)cc4)o3)CC2)c1 (stereo not given)
 : -10	-23%	.	13%	-1	-1.0%	2%
- COCCC(=O)N1CCc2c([nH]c3ccccc23)C1C(C)(C)C (stereo not given)
 : -7	-25%	0.9	5%	-5	.	23%
- CC(C)c1nc(SCc2c(F)cccc2Cl)c2c(=O)n(C)c(=O)n(C)c2n1
 : -1	-8%	0.2	-12%	8	-3.1%	-4%
- COc1ccc(CNC(=O)C(c2ccc(C)o2)N(C(=O)c2csnn2)c2ccc(C(C)C)cc2)cc1 (stereo not given)
 : -30	?	-0.3	-18%	-10	0.8%	15%
- CCC1CCCCN1CCCNC(=O)Cn1c(=O)c2cccn2c2ccccc21 (stereo not given)
 : 3	?	1.8	7%	-3	-6.2%	4%
- Cc1cc2c(c(=O)n1C)C(Cc1ccccc1)C(C#N)=C(N)O2 (stereo not given)
 : -7	-22%	0.4	-10%	24	28µM*	3%
- COc1ccc(OCCOC(=O)CNS(=O)(=O)c2ccc(SC)c([N+](=O)[O-])c2)cc1
 : -10	8%	.	-25%	-7	?	.
- CCC(=O)N1CCN=C1SCc1cc(C)ccc1C
 : -9	-33%[inhibitor]	.	0%	18	-1.9%	31%[activator]
- c1ccc2c(c1)ccc1nnnn12
 : -12	7%[15.4 µM]	.	12%	.	.	.
- CS(=O)(=O)N(CC(=O)N1CCOCC1)c1cccc(Cl)c1
 : -2	5%	.	.	.	0.5%	.
- NS(=O)(=O)c1ccc(NS(=O)(=O)c2ccc(C3CNC(=O)C3)cc2)cc1 (stereo not given)
 : -4	-2%[15.4 µM]	?	10%	2	28µM*	14%
- COc1ccccc1NC(=O)CN1CCC(c2nc3ccccc3[nH]2)CC1
 : -8	14%[15.4 µM]	-1.6	0%	-3	-1.0%	7%
- COc1cc2cc(CN(Cc3nnnn3C3CCCC3)C3CCCC3)c(=O)[nH]c2cc1OC
 : .	.	1.1	.	6	.	6%
- O=C(O)c1cc(=O)c2cccc(O)c2[nH]1
 : .	.	0.5&-3.2	.	-6	.	79µM*!
- COc1ccccc1NC(=S)N(Cc1ccc(C)cc1)Cc1cccnc1
 : 0	-13%[15.4 µM]	0.1	3%	-10	.	21%
- CN(C(=O)CSc1ncnc2sccc12)C1CCS(=O)(=O)C1 (stereo not given)
 : -2	25%	.	7%	-5	-0.9%	.
- Cc1ccc(-c2nnc(N3CCCCC3)c3ccccc23)cc1S(=O)(=O)NCC1CCCO1 (stereo not given)
 : -7	8%	-2.2	?	-10	-0.4%	-20%
- COC(=O)C(C)N(C(=O)c1cccc2ccccc12)c1c(C)cccc1C (stereo not given)
 : -6	-64%[inhibitor]	-0.7	?	-11	1.4%	1%
- O=[N+]([O-])c1ccc2nc(Cl)nc(-c3ccccc3)c2c1
 : -15	1%	-0.2	-15%	5	-1.2%	11%
- Cc1ccccc1N(CC(=O)Nc1ccccc1C(=O)O)S(C)(=O)=O
 : -1	7%	3.2	0%	-2	-16%	-18%
- O=C(CSc1nc(O)cc(=O)n1-c1ccccc1)N1CCCCC1
 : -2	-41%[inhibitor]	1.1	3%	-1	0.7%	7%
- Cc1occc1C(=O)Nc1cccc(Cn2cccn2)c1
 : -8	13%	2.8	7%	-1	0.3%	-2%
- O=c1[nH]c(=O)n(-c2ccccc2)c2c1C(C(F)(F)F)(C(F)(F)F)N=C(CCC1CCCCC1)N2
 : 2	16%	5.6	-8%	6	-4.4%	3%
- Cc1cccc(NS(=O)(=O)c2ccc(OCC(=O)N3CCCC3)cc2)c1
 : -4	-28%	.	5%	28	0.5%	2%
- COc1ccccc1C(=O)Nc1cccc(N(C)S(C)(=O)=O)c1
 : -24	?	3.3	-2%	5	-1.1%	6%
- Cc1c(Cl)cnc(NC(=O)COC(=O)c2ccncc2)c1Cl
 : -10	-45%	.	13%	-11	-5.8%	.
- C/C(=N\NC(=O)CNC(=O)C(c1ccccc1)c1ccccc1)c1ccc(C(C)(C)C)cc1
 : -3	-4%	4.2	9%	-21	2.1%	14%
- COc1ccc(C(=O)CSc2nnc(CNC(=O)c3ccco3)n2C)cc1OC
 : -4	-30%[inhibitor]	2.2	-3%	13	.	1%
- CC(C(=O)Nc1ccc(Cl)cc1)N(C)Cc1cccs1 (stereo not given)
 : -12	0%[15.4 µM]	1.1	-4%	-10	.	-7%
- Cc1cc(C)c(NC(=O)COC(=O)c2cccc3c2C(=O)c2ccccc2C3=O)c(C)c1
 : 55*	-57%[inhibitor]	4.6	-6%	18	1.8%	11%
- C=CCNc1nc(-c2ccc3c(c2)OCCO3)cs1
 : -8	23%	.	1%	.	-2.4%	.
- Cc1cc(N2CCN(C)CC2)nc2ccc(NC(=S)N3CCN(c4ccccn4)CC3)cc12
 : -10	-11%[15.4 µM]	-1.7	-3%	-7	.	8%
- COc1ccc(-c2csc(Nc3ccccn3)n2)cc1OC
 : -5	-1%[15.4 µM]	-0.8	-27%	9	0.0%	-28%
- O=C1C=C(c2ccc(Oc3ccccc3)cc2)C[C@@H](c2ccc(Cl)cc2)C1
 : -6	.	.	2%	1	-0.8%	.
- CC(=O)c1c(-c2ccccc2)c2cc(Cl)ccc2[nH]c1=O
 : -46	-5%[15.4 µM]	7.8	.	9	.	-4%
- COC(=O)c1ccc(N2CCc3ccccc32)c([N+](=O)[O-])c1
 : -1	-15%	-2.8	-6%	8	-0.2%	-10%
- CCc1nc(Nc2ccccc2F)c2oc3ccccc3c2n1
 : -6	16%[15.4 µM]	-1.0	-1%	7	.	6%
- Cc1cc(NS(=O)(=O)c2ccc(NC(=O)c3cnc4sccn4c3=O)cc2)nc(C)n1
 : -2	?	-1.1	19%	-7	-17%	-6%
- Cn1nnc2cc(C(=O)Nc3ccccc3F)ccc21
 : -8	-12%	0.4	6%	2	.	19%
- CC/C(=N/NC(=O)CNc1ccc(Cl)cc1C)c1ccccc1
 : -8	14%[15.4 µM]	2.4	3%	3	.	1%

Next results
Results follow in this order: D2 potentiator	gsp ag	Menin MLL FP FL	gsp antag	TRPV1 PAM	ClpP mod	Sfp inh
- CCCC(O)(CCC)C(=O)NN1CCCCC1
 : -5	?	-0.6	17%	3	-2.6%	1%
- CCOc1ccccc1/C=N/OCC(=O)NCc1ccc(F)cc1
 : -33	0%[15.4 µM]	-0.7	-5%	-4	.	2%
- CC1=C(C(=O)Nc2ccc(F)c(F)c2)C(c2cccs2)NC(=S)N1 (stereo not given)
 : -6	2%	4.2	8%	7	?	21%
- COCCN1Cc2cccc(C(=O)Nc3ccc(S(=O)(=O)N4CCCCCC4)cc3)c2C1=O
 : -2	-10%[15.4 µM]	-2.2	-3%	-2	.	5%
- CC(C)CC(COCc1ccc(Cl)cc1)N1CCN(C(=O)c2ccc(C(F)(F)F)cc2)CCC1=O (stereo not given)
 : ?	.	6.2	-17%	-11	0.2%	7%
- COC(=O)c1ccc(C)c(NS(=O)(=O)c2ccc3c(c2)OCCO3)c1
 : -13	14%	-0.4	6%	-8	-11%	16%
